AF4-AF9 inh: inhibitors of AF4 peptide binding to AF9, primary screen, biochemical, AlphaScreen, biotin-AF4 peptide, FLAG-AF9, single point; inhibition, % at 10 µM; Protein AF-9 (Homo sapiens), P42568; actives 0.47% (n = 350,000);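 active means every replicate reaching a set inhibition limit, whatever the replicate mean, cut at about 25% in these data; inconclusive means mean inhibition reaches that limit but some replicates miss it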;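 further: 0% = plate neutral control median and 100% = total signal loss; the record names both 10 and 1 µM as test concentration; the first replicate is given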
RanGTP-Impb inh: inhibitors of RanGTP-importin-beta interaction, primary screen, biochemical, FRET, CFP-Ran, YFP-importin-beta, homogeneous; actives 1.1% (n = 300,000); cell-free CFP-Ran/YFP-importin-beta FRET ratio; inhibition, % (test concentration not listed);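 active means most replicates above 15%; inconclusive means exactly half above 15%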;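 further: 0% = DMSO wells and 100% = Ran loaded with GDP instead of GTP; wells of about 40 µL received 100 nL stock; the first replicate is given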
Calb FLC: C. albicans growth inhibition with fluconazole, primary screen, CaCi-2 strain, Alamar Blue fluorescence. C. albicans CaCi-2 (fluconazole-resistant clinical isolate) + fluconazole, 48 h. growth inhibition, % (test concentration not listed). actives 0.57% (n = 300,000);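 active means most replicates above 75%; inconclusive means exactly half above 75%; inactive means most below 75%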;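 further: all wells also contain fluconazole at 8 µg/ml as a sub-toxic cotreatment; 0% = median of DMSO wells and 100% = median of geldanamycin control wells; wells of about 8 µL received 7.5 nL stock; the first replicate is given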
Bfl-1 A1 inh: caspase 3/7 activation in MEF A1-2A-BIM cells, primary screen, A1 inhibitor project, cell-based, luminescence, HTS | Caspase-Glo 3/7 luminescence, 3 h; percent of clofoctol response, vehicle zero | caspase activation, % (test concentration not listed) | actives 0.066% (n = 330,000);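 active means over half of replicate activation scores above 10%, or exactly half above 10 with the replicate mean above 10; inconclusive means replicate mean below 10 yet half the replicates above 10; inactive means over half of replicates below 10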;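 further: wells of about 30 µL received 50 nL stock; many hits fall short of the cut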
Vif TR-FRET: inhibitors of Vif binding to APOBEC3G peptide, primary screen, biochemical, TR-FRET, GST-Vif 1-94, biotin-A3G peptide, dose response retest (AID 1117319). TR-FRET GST-Vif / biotin-A3G peptide binding; higher % means a stronger effect; test concentration not given here; strong numbers were not always called active. inhibition, %, or IC50 in µM where a hit was titrated. actives 0.57% (n = 260,000);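 active means above the screen mean plus three standard deviations and confirmed in dose response; inconclusive means results disagree or hit not tested in dose response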;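 further: Vif residues 1-94 fused to GST binding biotinylated APOBEC3G peptide 110-148; 0% = full assay without inhibitor and 100% = GST in place of GST-Vif; retest series ran down from 100 µM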
LANA-H2A inh: blockers of LANA interaction with H2A/H2B – biochemical, FP readout, HTS, primary screen; Protein LANA1 (Human herpesvirus 8 type P (isolate GK18)), Q9QR71; cell-free LANA-H2A/H2B peptide, fluorescence polarization; AID 2629, 2010; actives 0.6% (n = 320,000); inhibition, % (no concentration beside the values); in the data active means inhibition mostly above about 10%, no sharp cut-off; inactive means mostly below about 6.7%;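 further: stock transfer was 7.5 nL into about 10 µL; 0% = median of vehicle wells and 100% = median of positive control wells; one replicate is shown; the record names a cut of 25% in any replicate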
Target sequence (Q9QR71 whole entry, looked up): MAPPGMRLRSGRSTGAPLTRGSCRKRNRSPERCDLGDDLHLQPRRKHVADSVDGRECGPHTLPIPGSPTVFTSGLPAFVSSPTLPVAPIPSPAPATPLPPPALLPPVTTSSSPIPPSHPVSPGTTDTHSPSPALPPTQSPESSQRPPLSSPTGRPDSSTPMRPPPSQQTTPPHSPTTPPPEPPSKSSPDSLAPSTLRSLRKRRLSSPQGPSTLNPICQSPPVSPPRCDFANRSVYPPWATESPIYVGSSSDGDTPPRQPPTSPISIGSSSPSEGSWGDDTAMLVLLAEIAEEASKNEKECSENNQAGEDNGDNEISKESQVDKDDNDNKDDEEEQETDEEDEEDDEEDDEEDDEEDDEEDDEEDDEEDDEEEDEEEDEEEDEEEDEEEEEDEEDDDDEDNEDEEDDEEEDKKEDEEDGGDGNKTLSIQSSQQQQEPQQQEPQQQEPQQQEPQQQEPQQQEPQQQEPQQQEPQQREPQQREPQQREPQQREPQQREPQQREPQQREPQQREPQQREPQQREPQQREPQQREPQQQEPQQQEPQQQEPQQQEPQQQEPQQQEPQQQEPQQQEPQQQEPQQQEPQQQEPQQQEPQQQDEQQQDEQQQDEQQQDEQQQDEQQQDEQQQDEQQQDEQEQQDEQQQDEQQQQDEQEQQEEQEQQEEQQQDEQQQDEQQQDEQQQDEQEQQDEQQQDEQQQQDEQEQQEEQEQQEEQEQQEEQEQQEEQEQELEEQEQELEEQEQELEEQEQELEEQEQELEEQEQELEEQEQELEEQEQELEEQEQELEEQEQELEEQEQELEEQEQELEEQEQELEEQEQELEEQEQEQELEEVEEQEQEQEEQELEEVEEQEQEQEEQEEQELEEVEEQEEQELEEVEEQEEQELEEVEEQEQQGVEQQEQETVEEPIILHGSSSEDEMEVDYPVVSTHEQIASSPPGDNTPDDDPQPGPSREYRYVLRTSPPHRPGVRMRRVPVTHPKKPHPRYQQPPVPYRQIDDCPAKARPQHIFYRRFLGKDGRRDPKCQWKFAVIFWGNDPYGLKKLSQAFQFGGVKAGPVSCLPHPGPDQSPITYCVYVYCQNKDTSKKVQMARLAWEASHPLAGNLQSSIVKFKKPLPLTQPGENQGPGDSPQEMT
Beta apoptosis: inhibitors of cytokine-induced beta cell apoptosis, primary screen, luminescence; protection from apoptosis, % (no concentration beside the values); INS-1E cytokine-induced death, ATP luminescence, 48 h; percent of positive-control rescue, neutral wells zero; actives 0.8% (n = 300,000);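 active means all replicates at 75% or more, or half of them and the mean; inconclusive means half reach 75% but not the mean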;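 further: 0% = cytokine-treated negative control wells and 100% = positive control rescue; higher means more ATP so stronger rescue from cytokine killing; wells of about 40 µL received 100 nL stock; the first replicate is given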
T cruzi inh: inhibitors of intracellular T. cruzi growth, primary screen, luminescence, NIH3T3 host cells; T. cruzi beta-gal in NIH3T3, 90 h; inhibition, % (test concentration not listed); actives 1.4% (n = 300,000);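 active means mean inhibition across valid replicates above about 55%, limit read from the data; inconclusive means mean below that limit but half or more replicates reach it; inactive means mean below it, under half of replicates reach it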;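 further: signal also drops with host cell toxicity which is not excluded here; 0% = plate median of DMSO wells and 100% = zero luminescence signal; higher percent means less beta-gal luminescence so fewer parasites; stock transfer was 50 nL into about 50 µL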
* marks the source's active call; other numbers are inactive results; ? = inconclusive; . = not tested or not shown.

SMILES	AF4-AF9 inh	RanGTP-Impb inh	Calb FLC	Bfl-1 A1 inh	Vif TR-FRET	LANA-H2A inh	Beta apoptosis	T cruzi inh
Cc1ccc(CC2CC(=O)N(CCc3ccccc3)C2=O)cc1 (stereo not given)	-0.3	4.8	53	0.5	-5%	0.7	-4	3
O=C(COc1cccc2cccnc12)N/N=C/c1ccccc1O	?	-3.7	-3	0.1	.	0.5	2	5
COc1ccc(C2OC(=O)CC2C(=O)N2CCN(c3cc(Cl)ccc3C)CC2)cc1OC (stereo not given)	-10	7.0	2	0.3	65%	8.6	-3	5
CC1CC(C)CN(c2ncnc3c2cnn3C)C1 (stereo not given)	-2.5	-0.5	-19	0.1	-2%	0.7	1	-8
CCn1c(SCC(=O)NC2=NCCS2)nnc1C(C)NC(=O)c1ccccc1F (stereo not given)	0.6	0.2	-1	1.0	.	-2.2	-8	14
Cc1ccccc1OCC1CNC(=O)O1 (stereo not given)	-2.1	2.6	-23	-0.5	.	3.3	1	-17
Cc1ccc2cc3c(NC(=O)C(C)C)nn(C)c3nc2c1	.	8.4	-3	0.1	2%	-8.1	2	4
CC(OC(=O)c1oc2ccccc2c1COc1ccccc1)C(=O)NC(N)=O (stereo not given)	-2.6	2.8	-24	-0.1	-4%	3.2	-3	-7
Cc1cccc2cc(C#N)c(NCc3ccccc3)nc12	-1.3	?	17	0.8	-54%	0.3	-4	2
CC(C)(C)CC(=O)N1CCC(c2nc3c(nnn3Cc3c(F)cccc3Cl)c(=O)[nH]2)CC1	.	-0.9	1	2.0	-8%	-2.5	6	-1
Cn1c(=O)c2c(nc(OC/C=C/c3ccccc3)n2C)n(C)c1=O	.	-1.7	-4	0.2	.	1.4	-1	-9
O=S1(=O)NC2CCCCCN2c2ccc(F)cc21 (stereo not given)	.	?	9	0.3	4%	2.6	-3	2

Reprinted from the part before: 7 entries; new compounds follow.
SMILES	AF4-AF9 inh	RanGTP-Impb inh	Calb FLC	Bfl-1 A1 inh	Vif TR-FRET	LANA-H2A inh	Beta apoptosis	T cruzi inh
Cc1ccccc1OCC1CNC(=O)O1 (stereo not given)	-2.1	2.6	-23	-0.5	.	3.3	1	-17
Cc1ccc2cc3c(NC(=O)C(C)C)nn(C)c3nc2c1	.	8.4	-3	0.1	2%	-8.1	2	4
CC(OC(=O)c1oc2ccccc2c1COc1ccccc1)C(=O)NC(N)=O (stereo not given)	-2.6	2.8	-24	-0.1	-4%	3.2	-3	-7
Cc1cccc2cc(C#N)c(NCc3ccccc3)nc12	-1.3	?	17	0.8	-54%	0.3	-4	2
CC(C)(C)CC(=O)N1CCC(c2nc3c(nnn3Cc3c(F)cccc3Cl)c(=O)[nH]2)CC1	.	-0.9	1	2.0	-8%	-2.5	6	-1
Cn1c(=O)c2c(nc(OC/C=C/c3ccccc3)n2C)n(C)c1=O	.	-1.7	-4	0.2	.	1.4	-1	-9
O=S1(=O)NC2CCCCCN2c2ccc(F)cc21 (stereo not given)	.	?	9	0.3	4%	2.6	-3	2
Cc1cccc(C)c1N(CC(=O)N1CCN(c2ccccc2F)CC1)S(C)(=O)=O	2.3	2.2	2	0.0	-7%	0.7	0	-2
CC1CN(C(=O)C(C)OC(=O)c2ccc3ncsc3c2)CC(C)O1 (stereo not given)	-0.6	.	.	-0.1	-7%	4.3	-3	.
CN1C(=O)NC(c2cccc([N+](=O)[O-])c2)C2=C1CCCC2=O (stereo not given)	2.3	-0.7	-2	0.5	4%	4.9	-1	-7
CN(C(=O)COC(=O)c1cc(S(=O)(=O)N2CCCCC2)ccc1Cl)c1ccccc1	0.4	.	.	0.0	-1%	-2.4	6	.
COc1cc(OC)cc(C(=O)NCCNC(=O)c2ccccc2)c1	.	-0.8	-15	0.1	?	2.2	-2	-12
O=C(c1cccc(F)c1)N1CCCc2ccccc21	-0.4	0.3	5	0.3	.	0.1	-28	-14
CCSC1=N/C(=C\c2ccccc2)C(=O)N1c1ccc(OC)cc1	3.8	0.8	4	0.2	10%	2.5	-3	18
C=CCc1ccccc1OCC(O)CN(CC)CC (stereo not given)	.	0.1	-21	0.1	-4%	0.2	-4	-24
Cc1ccc(NC(=O)c2ccc(-c3nn(C)c(=O)c4ccccc34)cc2)c(C)c1	.	3.9	5	0.5	-1%	5.2	0	5
CC(=O)Cc1nsc(NC(=O)c2cc(-c3cccc(C(F)(F)F)c3)oc2C)n1	.	-0.3	7	0.2	6%	3.9	10	6
CC(C)(C)OC(=O)NCC12C=CC(O1)C1C(=O)N(Cc3ccccc3)C(=O)C12 (stereo not given)	.	-2.2	-1	-0.3	2%	3.0	-4	6
O=C(NCc1ccc(Cl)cc1)C1CCC(CNc2c(N3CCCCC3)c(=O)c2=O)CC1 (stereo not given)	-1.6	?	14	-0.2	-6%	3.2	0	2

As entered above:
Value of CC1CN(C(=O)C(C)OC(=O)c2ccc3ncsc3c2)CC(C)O1 (stereo not given) under AF4-AF9 inh: -0.6
Value of O=C(c1cccc(F)c1)N1CCCc2ccccc21 under RanGTP-Impb inh: 0.3

(cont.)
SMILES	AF4-AF9 inh	RanGTP-Impb inh	Calb FLC	Bfl-1 A1 inh	Vif TR-FRET	LANA-H2A inh	Beta apoptosis	T cruzi inh
CCOC(=O)C1CCN(c2nnc(N3CCCC3=O)s2)CC1	.	-2.3	-2	0.2	4%	2.3	2	-13
COCCNS(=O)(=O)c1cc(-c2nn(C)c(=O)c3ccccc23)ccc1C	.	1.9	13	1.1	6%	2.3	-24	16
Cc1cc(C(=O)N2CCCC(C(=O)c3ccc(Cl)cc3C)C2)no1 (stereo not given)	0.5	-5.7	31	-0.1	-15%	0.5	.	4
CC[C@H](C)C(=O)N[C@H]1CCCN1C(=O)/C=C/c1ccccc1	1.2	.	.	-0.7	.	-4.2	0	.
O=C1CCC(=O)N1CC(=O)N1CCCc2ccccc21	-0.2	1.3	-2	0.3	3%	4.5	-2	3
c1ccc(-c2ccc3c(c2)c2c4n3CCN=C4CCC2)cc1	.	4.9	99*	.	7%	-5.4	3	-2
O=C(c1ccccc1)n1ccc(-c2cccs2)n1	-1.3	1.7	5	1.0	.	-7.0	-4	-19
O=c1[nH]c(CN2CCN(CCO)CC2)nc2ccccc12	.	1.9	-10	0.4	-1%	0.5	-8	9
CCNC(=O)C1CCCN1S(=O)(=O)c1ccc(OC)cc1 (stereo not given)	.	7.1	-2	0.9	1%	-4.6	-5	-7
O=C(COC(=O)c1ccco1)NNC(=O)c1ccc(Cl)cc1	1.0	.	.	-0.7	.	2.1	-6	.
CCN(CC)C(=O)Oc1ccc2ccccc2c1Br	-4.6	2.2	-4	-0.9	0%	0.0	.	16
CCCN(C(=O)CCc1ccc(OC)cc1)c1c(N)n(Cc2ccccc2)c(=O)[nH]c1=O	1.4	.	.	1.4	.	1.3	-1	.
O=C(NCc1ccc(F)cc1)C1CCCN(c2nc3ccsc3c(=O)s2)C1 (stereo not given)	11	-1.3	8	0.1	-31%	-3.3	-2	2
COc1ccccc1NC(=O)NC(N)=O	.	-6.0	-17	-0.7	-3%	3.2	.	-15
CN(Cc1nc2ccccc2c(=O)[nH]1)C(=O)c1ccc(S(=O)(=O)N2CCCC2)cc1	0.6	.	.	1.7	-10%	-9.3	-9	.
CN(C1CCCCC1)S(=O)(=O)c1ccc2c(c1)c(=O)c(C(=O)N1CCc3ccccc3C1)cn2C	1.1	6.4	?	-0.7	-51%	1.9	0	31
Cc1scc(C(=O)O)c1-c1c(C(=O)O)csc1C	0.8	-1.6	0	0.6	.	5.3	-6	-11
C=CCn1c(=N)n(CC(=O)c2ccc(OC)cc2)c2ccccc21	-0.5	1.1	-2	-0.4	10%	2.4	4	1
CSCC(=O)N1CCCC(N2CCN(c3cccc(C(F)(F)F)c3)CC2)C1 (stereo not given)	1.1	-0.7	-9	0.4	.	-0.5	.	5
CCCOc1ccc(-c2nc(-c3ccc(N)cc3)cs2)cc1	.	-2.2	.	1.1	2%	1.0	-14	13
CCOC(=O)c1c(NC(=O)COC(=O)c2ccccn2)sc2c1CCC2	1.1	4.5	-6	-0.7	?	8.1	1	39
C=CCn1c(=O)c2ccccc2n2c(SCC(=O)Nc3sc(C)c(CC)c3C(=O)OCC)nnc12	.	-1.3	-4	0.3	3%	1.9	-6	27
COc1ccc(CCNC(=O)COC(=O)C2CC2C)cc1OC (stereo not given)	-1.2	.	.	0.0	-6%	-1.8	1	.
N#Cc1c(N)oc(-c2ccc3c(c2)OCO3)c1-c1ccc2c(c1)OCO2	.	-1.0	15	-0.3	?	-1.0	-10	26
CC(C)(C)NC(=O)Cn1c(SCC(=O)Nc2nccs2)nc2ccccc21	.	-1.6	2	-0.2	.	4.1	-7	-5
Cc1c(OCC(=O)NCCN2CCOCC2)ccc2c(-c3ccccc3)cc(=O)oc12	-1.3	-4.2	3	0.2	.	4.1	-1	8
Cn1c(SCc2ccccc2)nnc1-c1cnccn1	.	0.1	-13	0.4	-5%	-3.6	-1	-2
CCC(C)(C)c1ccc(OCC(=O)N(C)C)c(C(C)(C)CC)c1	0.4	-3.5	-32	-0.6	-2%	0.5	-2	26

Screens as filed in PubChem.
